Bioassay records as filed in PubChem.
ugtP null kill = kills S. aureus RN4220 lacking UgtP. S. aureus RN4220 ugtP deletion, OD600 growth, 16 h; some inactives read as strong as hits. growth inhibition, % (test concentration not listed). 330,000 compounds, 0.54% hits. AID 1259309;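 active = z-score under -3 and OD600 up to 0.15 on both plates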;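 note: plate controls were untreated wells for no effect and antibiotic for full effect; wells of about 80 µL received 100 nL stock; the first replicate is given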
Bead autofluor = compound fluorescence in toxin protease inhibitor counterscreen | compound autofluorescence counterscreen, microsphere flow cytometry; stronger effect = higher value | fluorescence intensity (concentration not given with the values) | 360,000 compounds, 3.1% hits | AID 624483;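 active = at least 3 SD above the mean of all compounds, about 16000 in these data; inconclusive = too few beads counted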;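 note: 100 nL of 1 mM stock went into each well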
PrP 5UTR inh = inhibition of PrP 5' UTR reporter expression | cell-based PrP 5' UTR mRNA reporter, plate reader | inhibition, % (concentration not given with the values) | 340,000 compounds, 0.35% hits | AID 488862;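 active = every replicate at 50% or more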;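 note: 0 = median of the neutral control wells; tested in H4 reporter cells; numbers are from one replicate; inactives centre near -14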
RN4220 kill = S. aureus RN4220 growth inhibition. OD600, 16 h. inhibition, % (concentration not given with the values). 330,000 compounds, 0.33% hits;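 active = z-score of -3 or lower and OD600 up to 0.18 on both plates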;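 note: plate controls were untreated cells for no effect and reference antibiotic for full effect; stock transfer was 100 nL into about 80 µL; one replicate is shown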
Mtb hypoxia rep = inhibitors of hypoxia-regulated fluorescent reporter in Mycobacterium tuberculosis. M. tuberculosis hypoxia-regulated fluorescent reporter, fluorescence. fluorescence inhibition, % (test concentration not listed). 300,000 compounds, 0.1% hits;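 active = 35 to 45% if threefold the growth effect, above 45% if 1.5-fold the growth effect; inactive = the rest, general growth blockers included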;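 note: wells of about 50 µL received 100 nL stock; 0% = vehicle wells and 100% = reference inhibitor wells; whole bacteria with a GFP reporter of the hypoxia response; strong numbers were not always called active; many hits fall short of the cut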
BJeLR viability = kills HRASV12-expressing BJeLR cells | BJeLR (HRASV12) viability, CellTiter-Glo ATP luminescence, 48 h; reference of the scale not given here | 300,000 compounds, 0.17% hits | inhibition, % (concentration not given with the values) | AID 1554;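 active = replicate mean above 50%; inconclusive = above 50% but judged a plate artefact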;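 note: 50 nL library stock added to about 25 µL; numbers are from one replicate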
Mtb hypoxia rep growth = further read-out of Mtb hypoxia rep, marked with its call; growth inhibition, %; measured here: M. tuberculosis growth (absorbance);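 0% = vehicle and 100% = reference antibiotic; read after six days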
The depositor's hits bear a star; ? = inconclusive; / = not tested or not shown; & = joins results of further samples.

Second line of a record: Mtb hypoxia rep	PrP 5UTR inh	RN4220 kill	BJeLR viability	ugtP null kill	Bead autofluor	Mtb hypoxia rep growth
COCCCN(C(=O)c1ccco1)c1nc(-c2cc(OC)ccc2OC)cs1
 : 3	-24	11	-1	-21	5798	13
CC(C)C(=O)Nc1cccc(C(=O)OCC(=O)c2ccc(Cl)cc2Cl)c1
 : -3	-17	2.6	-9	0	5351	2
CC(=NNC(=O)CN(c1ccc(C)cc1)S(C)(=O)=O)c1cccs1
 : 12	/	5.7	/	-2	/	8
Cc1cccc(C=NNC(=O)c2ccc(NC(=O)c3ccccc3Cl)cc2)n1
 : -3	/	4.8	/	3	/	9
O=C(Oc1cccc(-n2cnnn2)c1)c1ccccc1Cl
 : 2	-20	7.1	-6	1	4038	2
C=CCOc1ccccc1C1NC(=O)NC(C)=C1C(=O)NCc1ccccc1 (configuration not stated)
 : 10	1	6.3	1	13	17255*	-9
COC(=O)c1cc(=O)n(Cc2cccs2)c(=NCc2cccs2)s1
 : 1	/	2.4	6	0	9585	4
S=c1[nH]nc(-c2ccccc2)n1C1C=CCCC1 (configuration not stated)
 : 10	-3	10	0	13	16741*	12
COc1ccccc1CNC(=O)COC(=O)c1ccc(C)c(S(=O)(=O)N2CCOCC2)c1
 : 3	-20	4.3	-4	1	?	5
CN(N=Nc1cccc([N+](=O)[O-])c1)c1cccc([N+](=O)[O-])c1
 : 2	-29	4.7	4	5	2197	7
Cc1ccc(CN2CCCC(C(=O)N3CCCC3)C2)cc1 (configuration not stated)
 : 3	-10	1.7	3	8	4074	4
Cn1ncc(Cl)c1C(=O)Nc1nc2ccc(Cl)cc2s1
 : 5	-97	28	15	32	8755	7
CN1CCN(S(=O)(=O)c2cccc(C(=O)Oc3ccc(Br)cc3F)c2)CC1
 : 9	1	0.8	7	4	4317	-3
Cc1ccc(S(=O)(=O)N2CCCCC2)cc1NC(=O)C1CCCO1 (configuration not stated)
 : 3	-19	1.5	3	2	4245	3
CCOc1ccc(CCNC(=O)COC(=O)Cc2c[nH]c3ccccc23)cc1OCC
 : 2	-20	3.4	-3	1	5881	8
CCN(CC)S(=O)(=O)c1ccc(N2CC(C(=O)NCCC3=CCCCC3)CC2=O)cc1 (configuration not stated)
 : 2	-33	-2.4	/	1	5465	-1
COC(=O)[C@]1(C)N[C@H](CN(C)C(=O)Nc2ccccc2)[C@@H]2C(=O)N(C)C(=O)[C@@H]21
 : -7	-10	1.4	/	2	3780	3
COc1ccccc1N1CCN(C(=O)c2cc(=O)c3ccc(C)cc3o2)CC1
 : 4	-9	2.8	-8	0	3512	7
O=C(NN=C1C2CC3CC(C2)CC1C3)c1ccccc1O
 : 14	-26	2.7	-11	4	4242	7
COc1ccccc1/C=C/C(=O)OC(C)CN1CCCCC1 (configuration not stated)
 : 7	-10	0.7	-7	8	2989	-11
CCOC(=O)C1C(=O)CC(O)(c2ccccc2)CC1c1ccccc1 (configuration not stated)
 : /	-5	1.9	-5	4	2365	/
COc1ccc2c(c1OC)C(=O)N(c1ccc(C)cc1)C2
 : 7	-52	5.5	-9	3	5841	9
COc1cc(NC(=O)c2cnc(N)o2)cc(C(=O)Nc2cccc(C(F)(F)F)c2)c1
 : 9	-23	1.7	-3	5	3023&4106	3
COc1ccc(C2=C(C=C(C#N)C#N)C(c3ccccc3C)c3ccccc3O2)cc1OC (configuration not stated)
 : 8	-4	3.2	-1	3	2349	5
CCC(C)C(NC(=O)OCc1ccccc1)C(=O)OCN1C(=O)c2ccccc2C1=O (configuration not stated)
 : /	-21	-4.0	0	8	3508	/
CCC[C@@H](NS(=O)(=O)c1ccc(C)cc1)C(=O)Oc1ccc2c3c(c(=O)oc2c1)CCC3
 : 2	-4	6.3	-7	-9	1955	-1
COc1ccc(NS(=O)(=O)c2cccc(NC(=O)c3ccc(Cl)nc3)c2)cc1
 : /	-6	/	21	/	2359	/
CC(=O)NC(CC(=O)O)C(=O)O (configuration not stated)
 : 4&-2	-5	9.0&4.3	-5	-1&-1	6800	-2&0
COc1ccc(S(=O)(=O)N2CCOCC2)cc1NC(=O)[C@@H]1CCCN1C(=O)c1cccs1
 : 1	-21	5.9	-8	4	4458	1
O=C(c1ccc(S(=O)(=O)N2CCc3ccccc3C2)cc1)N1CCCCC1
 : 7	0	5.8	-9	2	2209	9
CC1(C)CC(=O)CC(=NNC(=O)c2cccs2)C1
 : 19	/	2.8	/	-2	/	7
C=CCSc1nsc(NC(=O)Nc2ccc(F)cc2)n1
 : /	-11	/	21	/	3677	/
O=C(Nc1nc2c(s1)CCc1ccccc1-2)c1cccs1
 : 20	-77	1.9	0	2	2492	-22
O=C(/C=C/c1ccc(F)cc1)c1cc(Br)ccc1O
 : 11	-12	-0.7	3	2	3904	7
Cc1cccc(NC(=S)NC(=O)C=Cc2ccccc2)n1
 : -2	/	1.5	/	-4	/	-7
O=C(c1ccco1)N1C(=O)c2cccc3c(S(=O)(=O)N4CCCC4)ccc1c23
 : /	-12	-1.2	7	11	4855	/
CN(C)CCCOC(=O)c1ccc(Cl)cc1Cl
 : 11	-21	1.4	0	-4	?	18
CCOCCCNC(=O)C1c2cc(OC)c(OC)cc2C(=O)N2CCCCC12 (configuration not stated)
 : 7	-10	3.6	-9	7	8885	-2
Cc1ccc(-n2c(SCC(=O)N3CCOCC3)nc(O)c(Cc3ccccc3)c2=O)cc1
 : 1	-16	1.8	7	8	5492	1
Cn1c(=O)c2c(nc(Br)n2Cc2ccccc2Cl)n(C)c1=O
 : /	3	1.0	-6	2	4659	/
Cc1ccc(NC(=O)CSCC(=O)NC2=NCCS2)cc1
 : 9	-14	2.1	/	5	4071	6
COc1ccccc1C(CNC(=O)COc1cc(C)ccc1Cl)N1CCCC1 (configuration not stated)
 : -5	-15	-3.0	12	-2	5696	-13
O=C(COc1cccc(C(F)(F)F)c1)NCC(c1cccs1)N1CCOCC1 (configuration not stated)
 : -6	-17	3.9	/	-5	3765	12
O=C1CC2(CCCC2)Oc2ccc(Cl)cc21
 : 6	-16	2.9	-9	-1	4025	10
COc1ccc(S(=O)(=O)NC2CCCCC2)c(C)c1C
 : /	0	2.4	6	-2	3701	/
COc1ccccc1N1CCN(C(=O)c2cccc(S(=O)(=O)N3c4ccccc4CC3C)c2)CC1 (configuration not stated)
 : 3	3	9.5	/	-10	4422	9
COc1cccc(NC(=S)NCc2ccccn2)c1
 : 14	-5	4.6	4	-4	2279	6
COc1ccc(N2C(C)=CS/C2=C(/C#N)c2nnc(N3CCOCC3)n2-c2ccccc2)cc1
 : 4	0	2.6	-6	0	6089	14
Cc1sc2ncnc(NCCCN3CCCC3=O)c2c1C
 : 3	-4	-0.4	-14	11	4625	9
O=C(NCCc1c[nH]c2ccccc12)c1c(Cl)nc2sccn12
 : 8	-11	7.1	0	9	3297	9

(cont.)
Second line of a record: Mtb hypoxia rep	PrP 5UTR inh	RN4220 kill	BJeLR viability	ugtP null kill	Bead autofluor	Mtb hypoxia rep growth
CC(=O)NC1(C(F)(F)F)C(=O)Nc2c1c(=O)[nH]c(=O)n2CC(C)C (configuration not stated)
 : 0	-26	6.5	4	7	4043	2
CC1(C)CC(=O)CC(=NNC(=O)C2CC2c2ccccc2)C1 (configuration not stated)
 : -1	/	0.0	/	4	/	15
COc1cc(C=NNC(=O)c2cccnc2)cc(Br)c1O
 : 14	/	-2.1	/	12	/	7
CC1(C)CC(=O)C(CS(=O)(=O)c2ccccc2)=C(O)C1
 : -7	-7	-1.3	6	0	6275	8
COc1cc2c(cc1OC)CN(Cc1cc(OC)c3c(c1)OCO3)CC2
 : 1	-17	2.0	-5	11	4374	6
COc1ccc(C(=O)CSc2nc(N)nc(SC)c2C#N)cc1
 : 5	-7	5.3	-3	-6	19201*	13
CCOC(=O)c1nnn(-c2nonc2N)c1CSc1ccc(C)cc1
 : /	-12	0.1	-2	10	4636	/
c1cncc(CNc2c3c(nc4nnnn24)CCCC3)c1
 : 11	-12	4.9	0	1	4415	7
COc1ccc(C2CC(c3ccccc3)=NN2S(=O)(=O)c2ccccc2)cc1 (configuration not stated)
 : -6	-13	2.2	25	12	3579	-1
CCN(CC)C(=O)C1CCCN(C(=S)Nc2cccc3ccccc23)C1 (configuration not stated)
 : -4	-39	-0.9	-16	-1	2092	13
Cc1nc2ccccc2c(=O)n1/N=C/c1ccccn1
 : /	-25	/	1	/	9152	/
Nc1cc(=O)[nH]c(SCC(=O)N2CCCCC2)n1
 : 5	9	2.1	12	3	3455	-1
COc1ccc(-n2c(O)c(/C=N/NS(=O)(=O)c3cccc([N+](=O)[O-])c3)c3ccccc3c2=O)cc1OC
 : 4	-9	-4.0	-4	3	2707	-7
N=C(N)c1ccc(O)cc1
 : -3	-15	3.2	2	0	3546	2
Cc1cccc(NCC(=O)N/N=C\c2cccc(Oc3ccccc3)c2)c1
 : /	-5	/	4	/	2086	/
Cc1cc(C)nc(SCc2ccc(C(=O)NN=CC3CCCCC3)cc2)n1
 : 10	/	2.5	/	1	/	0
CCn1cc(C(=O)N2CCCCC2)c2ccccc21
 : 0	-9	4.1	31	4	4033	-9
O=C(CN(Cc1ccccc1Cl)S(=O)(=O)c1ccc(Cl)cc1)NN=Cc1ccc(C(=O)O)cc1
 : 9	/	9.0	/	18	/	-2
Cc1ccc(CN2CCNC(=O)C2CC(=O)O)o1 (configuration not stated)
 : -5	-1	2.7	-1	-15	4355	-8
CC(Oc1ccc(Cl)cc1Cl)c1ccnc(N)n1 (configuration not stated)
 : -1	-15	4.5	-4	0	4565	10
CC(=O)c1ccc(NC(=O)CN2C(=O)NC(C)(c3ccc4c(c3)OCCO4)C2=O)cc1 (configuration not stated)
 : 1	-2	-1.2	/	0	?	9
Cc1ccc(OCC(=O)Nc2ccc(NC(=O)c3cccs3)cc2)c(C)c1
 : 12	-4	-0.9	5	-1	3884	5
COC(=O)c1ccc(OC)c(OC)c1Cl
 : -7	-40	2.1	4	11	5723	2
O=C(O)Cc1ccc(NCc2ccccc2Cl)cc1
 : 15	-3	-1.6	/	2	3584	3
Cc1nccn1CC(=O)N/N=C/c1cccs1
 : /	-45	/	1	/	3798	/
O=C(CSc1n[nH]c(-c2ccccn2)n1)Nc1cccc(Cl)c1
 : -7	10	8.8	4	4	4451	-5
Cc1ccc(-c2cn3nc(-c4ccccc4)c(-c4ccccc4)nc3n2)cc1
 : 2	/	-3.8	10	50	/	6
COc1cccc(/C=C2\SC(=S)N(CCCC(=O)N3CCCC3)C2=O)c1
 : 17	-7	5.0	13	7	4560	15
CCOC(=O)Cc1csc(NC(=O)CSc2nnc(-c3ccncc3)n2Cc2ccco2)n1
 : 8	5	2.4	5	5	3884	6
CC1=NNC(=O)C1CCC(=O)N/N=C/c1ccccc1 (configuration not stated)
 : /	-21	/	0	/	5999	/
CCn1cc(C(=O)NCCc2ccc(OC)cc2)c(=O)c2ccc(C)nc21
 : -9	-8	-6.0	-17	-3	2864	7
CC(C(=O)N(C)C1CCS(=O)(=O)C1)N1C(=O)/C(=C/c2ccco2)SC1=S (configuration not stated)
 : 13	13	7.4	0	3	4505	8
CN(C)/C=N/n1cnc2ccccc2c1=O
 : /	-38	/	-2	/	3639	/
O=C(Nc1ccc(S(=O)(=O)N2CCCCC2)cc1)c1ccc(CN2CCOCC2)cc1
 : 11	-21	-0.3	14	9	11279	2
CCn1c2ccccc2c2cc(NC(=O)COC(=O)c3ccc(NC(=O)CC#N)cc3)ccc21
 : 11	-25	-0.7	-13	-5	?	6

Four compounds from above, ordered by number of heavy atoms, lowest first.
Second line of a record: Mtb hypoxia rep	PrP 5UTR inh	RN4220 kill	BJeLR viability	ugtP null kill	Bead autofluor	Mtb hypoxia rep growth
CN(C)/C=N/n1cnc2ccccc2c1=O
 : /	-38	/	-2	/	3639	/
CCn1cc(C(=O)NCCc2ccc(OC)cc2)c(=O)c2ccc(C)nc21
 : -9	-8	-6.0	-17	-3	2864	7
O=C(Nc1ccc(S(=O)(=O)N2CCCCC2)cc1)c1ccc(CN2CCOCC2)cc1
 : 11	-21	-0.3	14	9	11279	2
CCOC(=O)Cc1csc(NC(=O)CSc2nnc(-c3ccncc3)n2Cc2ccco2)n1
 : 8	5	2.4	5	5	3884	6
